Sa helicase inh – S. aureus DNA helicase inhibition; purified S. aureus helicase, fluorescence unwinding assay; about half of the hits fall short of the stated cut; inhibition, %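 (tested at about 80 µM)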; 120,000 tested, 0.05% active; AID 485395;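 active = both duplicates at 50% or more, or one of them with a favoured structure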;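 note: 0% = mean of negative control wells and 100% = mean of positive control wells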
MgrA DNA FP – S. aureus MgrA-DNA binding modulation | fluorescence polarization | inhibition, %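 (about 10 µg/mL by stock and volumes)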 | 84,000 tested, 0.13% active;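 active = above 50% in either of two replicates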;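 note: 0% = protein plus DNA without compound and 100% = DNA alone without protein; higher means less MgrA bound to DNA so lower polarization; one replicate is shown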
* hit, by the source's call; . = not tested or not shown; & = joins results of further samples.

Values run as follows: Sa helicase inh | MgrA DNA FP
Cc1cccn2c(=O)c3cc(C(=O)NC4CCCCCC4)sc3nc12
 : 11 | -0.6
COc1ccc(NC(=O)CCC(=O)Oc2ccc(C)cc2)cc1
 : 13 | 0.6
Cc1cc(C)c2oc(-c3ccc(NC(=O)c4cc([N+](=O)[O-])ccc4Cl)cc3)nc2c1
 : . | 0.8
O=c1cc(CSc2nc3ccccc3c(=O)[nH]2)c2ccc(O)cc2o1
 : 1 | .
CC(C)c1ccc(NC(=O)NN2CCOCC2)cc1
 : 9 | -0.6
Cn1cccc1C(=O)c1ccc(Cl)cc1
 : -6 | -0.2
O=C(Nc1ccccc1)C1CCCN1C(=O)NCc1ccccc1 (stereo not drawn)
 : 4 | -1.1
O=C(OCc1cc(Cl)cc2c1OCOC2)c1ccc(CN2CCCC2=O)cc1
 : -8 | .
OC(COc1ccc(Br)cc1)CN1CCN(c2nc(-c3ccccc3)ns2)CC1 (stereo not drawn)
 : . | -0.3
CC(C)(C)c1cc(Cl)c(OS(=O)(=O)c2ccc(Cl)cc2)c(Br)c1
 : . | -1.1
CCC(=O)N=c1sc2c(OC)ccc(OC)c2n1CC
 : 6 | .
Cc1cc(C)c2c(c1C(=O)Nc1cccc(C(F)(F)F)c1)CC(C)(C)C2=O
 : . | 0.7
CCCCOc1ccc(/C=C2/N=C(c3cc(OC)c(OC)c(OC)c3)OC2=O)cc1
 : . | -1.2
Cn1c2c(c(=O)n3ncnc13)CCCC2
 : 15 | .
CC(C)N(C(=O)Cn1cnc2ccccc21)C(C)C
 : 12 | 7.7
O=C1CC(c2ccc(-c3ccccc3)cc2)C2=C(CCCC2=O)N1 (stereo not drawn)
 : 12 | .
COc1ccc(CCN2C(=S)NC3CC2(C)Oc2c(OC)cc(Br)cc23)cc1OC (stereo not drawn)
 : 9 | 1.1
O=C1NC(C2CC=CCC2)Nc2ccccc21 (stereo not drawn)
 : . | -0.2
O=C(NCc1n[nH]c(=S)n1-c1ccccc1)c1ccc(S(=O)(=O)N2CCCCC2)cc1
 : -33 | .
O=S(=O)(O)c1cccc2cccc(Cl)c12
 : . | -2.1

Record cards (already shown).
`CCC(=O)N=c1sc2c(OC)ccc(OC)c2n1CC` is entered as Sa helicase inh: 6; MgrA DNA FP: .
`O=C1CC(c2ccc(-c3ccccc3)cc2)C2=C(CCCC2=O)N1` (stereo not drawn) is entered as Sa helicase inh: 12; MgrA DNA FP: .

Continuation.
Values run as follows: Sa helicase inh | MgrA DNA FP
CCCCOC1COC(OCCCC)CO1 (stereo not drawn)
 : -4 | .
O=C(CN(CCc1ccc(F)cc1)CC(=O)N1CCc2ccccc21)N1CCc2ccccc21
 : 10 | .
O=C(CN1C(=O)CSc2cc(S(=O)(=O)N3CCCC3)ccc21)NCc1ccccc1
 : 2 | -1.4
O=C(c1cc2c(s1)CCC2)N1CCc2ccccc21
 : 14 | 2.4
Cn1c(N)c(C(=O)CN2c3cccc4cccc(c34)S2(=O)=O)c(=O)n(C)c1=O
 : -15 | .
O=S1(=O)CCC(N(CC2CCCO2)S(=O)(=O)C2=Cc3ccccc3CC2)C1 (stereo not drawn)
 : -5 | .
CC(=O)c1sc2sc(C#N)c(C)c2c1C
 : . | -7.7
Cc1cc(C)c2c(=O)n(C(=O)c3ccc(Cl)cc3)sc2n1
 : -39 | .
CC1CC(C)CN(S(=O)(=O)c2ccccc2)C1 (stereo not drawn)
 : 9 | -0.1
CCC(=O)NCCSc1c[nH]c2ccccc12
 : 15 | 1.2
COc1ccc(-c2nn(CN(C)C3CCCCC3)c(=S)n2CC2CCCO2)cc1 (stereo not drawn)
 : -2 | .
COC(=O)c1cc(-c2ccc(Cl)cc2)nc2onc(C(C)C)c12
 : -3 | .
Cc1nc2ccccc2n1C1CC(=O)N(c2ccccc2)C1=O (stereo not drawn)
 : . | 0.6
O=C(Nc1ccccc1C(F)(F)F)C1c2ccccc2Oc2ccccc21
 : 7 | 2.2
COc1ccc(CNC(=O)C2C3C=CC(O3)C2C(=O)O)cc1OC (stereo not drawn)
 : 1 | 0.3
CCC(Sc1nc2ncccc2[nH]1)C(=O)NC1CCCC1 (stereo not drawn)
 : 3 | .
COc1ccc(S(=O)(=O)N2CCCC2C(=O)Nc2c(C)n(C)n(-c3ccccc3)c2=O)cc1 (stereo not drawn)
 : -8 | .
O=C(CSc1nnc(-c2ccncc2)n1-c1ccccc1)Nc1ccccc1
 : 7 | 4.7
O=C(O)c1ccc(Cl)c(N2CCCC2=O)c1
 : 6 | .
COc1ccc(/C=C2/C(=O)N(C)c3ccccc32)cc1
 : 10 | .
COc1ccc(-c2cc(-c3nnc(COC(=O)C4COc5ccccc5O4)o3)c3ccccc3n2)cc1OC (stereo not drawn)
 : -10 | .
CCOc1cc2[nH]c(=O)n(CC3CCC(C(=O)NCCC(C)C)CC3)c(=O)c2cc1OCC (stereo not drawn)
 : -9 | .
O=C(O)C1CC(=O)N(C2CC2)C1 (stereo not drawn)
 : -12 | -2.6
CCn1c(C(=O)N2CCC(C(=O)NCCCc3ccccc3)CC2)cc2sccc21
 : 7 | .
C=CCN(CC=C)C(=O)C1CCN(Cc2cc(Br)c(O)c(OC)c2)CC1
 : 8 | 1.2
CC(CCc1ccccc1)NCc1c(C(=O)O)n(Cc2ccc(F)cc2Cl)c2ccccc12 (stereo not drawn)
 : 13 | 0.2
CC12CCC(C1)C(C)(C)C2NC(=O)C1CCC1 (stereo not drawn)
 : . | -3.1
CC(=O)Nc1cccc(N=Cc2cc(Br)ccc2O)c1
 : . | 5.4
CCn1c(SCC#N)nnc1-c1ccc(S(=O)(=O)N2CCCC2)cc1
 : 1 | 1.5
O=C(O)CSc1nc2ccccc2c(=O)n1-c1ccccc1
 : 8 | -1.1
O=C(CSc1nnc(Nc2ccccc2)s1)NC1CCS(=O)(=O)C1 (stereo not drawn)
 : 10 | .
Cc1nc2scc(-c3ccc(Br)cc3)c2c(=O)o1
 : . | 3.2
COc1cc(CNCc2cccc(C(F)(F)F)c2)cc(OC)c1
 : 9 | -1.4
CC1(C)CC(NCCNC2=CC(=C(C#N)C#N)CC(C)(C)C2)=CC(=C(C#N)C#N)C1
 : 0 | .
c1cc2c3c(cccc3c1)C(N1CCOCC1)=N2
 : -94 | .
O=C(Nc1ccccc1)Nc1ccc(Cl)c(Cl)c1
 : -15&-3 | .
Cc1ccc(N=CC2=C(O)CCCC2=O)cc1
 : 8 | 1.6
COC(=O)C1=C(N)OC(OC)=C(C#N)C1c1ccncc1 (stereo not drawn)
 : -1 | 3.8
CCOC(=O)C1CCCN(C(=O)CSCc2nc(-c3ccc(Cl)cc3)oc2C)C1 (stereo not drawn)
 : 8 | .
CN(CCCn1cnc2c([nH]c3ccc(Cl)cc32)c1=O)C1CCCCC1
 : 8 | .
CN(c1ccc(-c2csc(-c3cccs3)n2)cc1)S(C)(=O)=O
 : 23 | .
O=C(O)Cc1ccc2c(c1)CCC2
 : -6 | 3.8
CCN(C(=O)c1cccc(C)c1)c1ccccc1
 : 7 | 1.1
COc1ccc2oc(=O)c(-c3nc(-c4ccncc4)n[nH]3)cc2c1
 : 6 | .
CSC(C)c1ccn(S(=O)(=O)c2ccc(Cl)cc2)n1 (stereo not drawn)
 : . | 0.1
Cc1ccc(CCNS(=O)(=O)c2cnc[nH]2)cc1
 : 15 | .
Clc1ccccc1OCc1nnc2n1CCC2
 : -3 | -0.8
CCC(=O)Nc1ccc(S(=O)(=O)N2CCCCC2CC)cc1 (stereo not drawn)
 : -5 | -0.7
Cc1ccc2nc(-c3cccc(-c4nc5ccc(C)cc5o4)n3)oc2c1
 : 14 | -0.9
O=C(O)COc1ccccc1Cc1ccccc1
 : 2 | -4.5
O=C(NCc1ccc2[nH]c3c(c2c1)CCCC3)c1ccc(C(F)(F)F)cc1
 : 6 | 1.4
Cc1oc(-c2cccs2)cc1C(=O)NCCNc1nccc(C(F)(F)F)n1
 : . | -1.9
FC(F)(F)c1cc(-c2ccc(Br)cc2)n[nH]1
 : 8 | 6.3
NNc1ncnc2c1oc1ccccc12
 : 12 | 1.1
Cc1nnc(NC(=O)c2cn(-c3ccccc3)nc2-c2cccnc2)o1
 : 4 | .
CN(Cc1ccccc1)S(=O)(=O)c1ccc(N2CCOCC2)nc1
 : . | -0.3
COc1ccc(CN(C)S(C)(=O)=O)cc1
 : 25 | 0.1
Cc1ccc(-n2c(SCC(=O)N3CCNC3=O)nnc2-c2ccccc2)cc1C
 : 3 | .
O=C1NC(=Nc2ccccc2)SC1Cc1cccc(Cl)c1 (stereo not drawn)
 : . | 0.5
COc1ccc2c(C)c(CC(C)O)c(=O)oc2c1 (stereo not drawn)
 : 8 | 0.2

Random excerpt: 4 entries already listed, in no set order.
Values run as follows: Sa helicase inh | MgrA DNA FP
O=C(O)Cc1ccc2c(c1)CCC2
 : -6 | 3.8
O=C(NCc1ccc2[nH]c3c(c2c1)CCCC3)c1ccc(C(F)(F)F)cc1
 : 6 | 1.4
Cc1ccc(CCNS(=O)(=O)c2cnc[nH]2)cc1
 : 15 | .
Clc1ccccc1OCc1nnc2n1CCC2
 : -3 | -0.8

(cont.)
Values run as follows: Sa helicase inh | MgrA DNA FP
O=C(O)CCCNc1ccc([N+](=O)[O-])cc1[N+](=O)[O-]
 : . | -1.4
N#Cc1ccc(OC(=O)COc2ccc(Br)cc2)cc1
 : -21 | .
CC1CC(C)CN(CCCNC(=O)Cc2c(C(=O)O)[nH]c3ccccc23)C1 (stereo not drawn)
 : 2 | -1.6
CC(=O)Nc1ccc(S(=O)(=O)c2cc(OC(=O)c3ccco3)ccc2OC(=O)c2ccco2)cc1
 : 10 | .
CC(C)n1cc(C#N)c(=O)n(Cc2ccccc2)c1=O
 : . | -1.7
COc1ccccc1-c1nnc(NC(=O)C(C)SC2=NCCS2)s1 (stereo not drawn)
 : -3 | .
CCC(=O)NC(C)C(c1cccs1)N1CCN(Cc2ccccc2)CC1 (stereo not drawn)
 : -2 | .
CCCOc1cccc(C(=O)Nc2ccc(C(=O)OC)cc2)c1
 : -7 | 0.1
COc1cccc(OC)c1C(=O)OCC(=O)NC1CCCCC1C (stereo not drawn)
 : 8 | .
COc1ccc(O)c(C2(O)C(=O)c3ccccc3C2=O)c1
 : -4 | .
CC(C)N1CCc2c(sc(NC(=O)C3=COCCO3)c2C(N)=O)C1
 : 42* | .
Cc1cc(C(=O)N2CCN(Cc3ccccc3)CC2)n[nH]1
 : 4 | 0.6
O=C(CSc1nc(O)cc(=O)n1-c1ccccc1)N1CCc2ccccc21
 : 1 | 4.0
Cc1ccc(C(=O)CCC(=O)Nc2cccc3ccccc23)cc1
 : -2 | -1.0
COc1ccccc1N1CCN(CC(N)=O)CC1
 : 2 | -3.9
CCOc1ccc(C2CC(=O)NC3=C2C(=O)CCC3)cc1 (stereo not drawn)
 : 8 | .
CC(C)Cc1nnc(NC(=O)CCCN2C(=O)CCC2=O)s1
 : -1 | 0.5
Cc1oc2ccccc2c2nn(C)c(=O)c1-2
 : -27 | .
O=S(=O)(c1ccc(-c2cc(C(F)(F)F)on2)s1)N1CCC(O)CC1
 : . | 1.0
CCC1=C(C)CN(C(=O)NCCc2ccc(S(=O)(=O)NC(=O)NC3CCC(C)CC3)cc2)C1=O (stereo not drawn)
 : . | 5.3
CC(C)[C@H]1COC(c2cccc(C3=N[C@@H](C(C)C)CO3)n2)=N1
 : . | 4.2
Cc1cc(NC(=O)CN2CCCc3ccccc32)no1
 : -15 | .
CCn1c(SCC(=O)c2ccccc2)nnc1-c1c[nH]c2ccccc12
 : 2 | .
COc1cccc(C(=O)NC(=S)Nc2ccc(O)c(-c3nc4ccccc4s3)c2)c1
 : 9 | 2.2
Cn1ccnc1SCC(=O)Nc1ccccc1Oc1ccccc1
 : -1 | -1.6
CCNCc1ccncc1
 : 6 | .
CC(=O)Oc1ccc(C(=O)Nc2ccc(F)cc2F)cc1
 : -4 | -0.1
COC(=O)c1sc(-c2cccs2)cc1NC(=O)CCC(=O)O
 : . | -3.8
CC(=O)NC(=S)Nc1nc2ccccc2n1C(C)=O
 : 0 | 1.0
Brc1ccc2c(c1)OCCO2
 : -5 | .
Cc1cc(C)n(-c2ccc(C(=O)OCC(=O)Nc3c(Cl)cccc3Cl)cc2)n1
 : -7 | 1.1
CN(Cc1nc2ccccc2s1)S(=O)(=O)c1cccc(Cl)c1
 : 14 | .
CCOC(=O)N1CCN(C(=O)CCCC2CCCCC2)CC1
 : -7 | .
COc1ccc2nc(NS(=O)(=O)Cc3ccccc3)sc2c1
 : 2 | -0.6
O=C(O)/C=C\C(=O)Nc1ccc2cn[nH]c2c1
 : 5 | -1.4
COc1ccc(OCC(C)N)cc1 (stereo not drawn)
 : 1 | -2.5
COc1cc(Cl)c(NS(=O)(=O)c2cc(Br)c(Br)s2)c(OC)c1
 : . | -0.2
CC(=O)Nc1cccc(C(=O)NCc2ccccc2F)c1
 : 22 | .
CCOC(=O)c1cccc(CSc2n[nH]c(N)n2)c1
 : -11 | 0.8
O=C(c1ccco1)N1CCN(C(=O)c2cnn(-c3ccccc3)c2-n2cccc2)CC1
 : -6 | .
COc1ccc(S(=O)(=O)Cc2ccccc2)cc1NC(C)=O
 : 6 | .
O=C(O)CC(NC(=O)c1ccccc1)C(=O)O (stereo not drawn)
 : . | -2.5
O=C(Nc1ccc(-c2nc3cccnc3s2)cc1)c1ccccc1
 : -7 | 2.4
CC1(N(O)/C=C2/C=CC=N2)CCCCC1=O (stereo not drawn)
 : . | 1.6
O=c1oc2c(ccc3c(O)cccc32)c2c1CCCC2
 : 8 | 5.4
NC(=O)Cn1cnc(-c2ccc(F)cc2)c1
 : 15 | .
CCc1ccc(NC(=O)COc2cnc3ccccc3n2)cc1
 : -15 | 0.0
Nc1c2c(nn1Cc1ccccc1)CCCn1c-2nc2ccccc2c1=O
 : 1 | .
CCNc1nc(NCC)nc(C(=O)OCCO)n1
 : 6 | -0.2
Cc1nc2sc3c(c2c2nnc(SCC(=O)c4ccccc4)n12)CCCC3
 : 2 | 0.0
C1C2CC3CC1CC(C2)C3Nc1nc2nonc2nc1NC1C2CC3CC(C2)CC1C3 (stereo not drawn)
 : . | 0.3
COc1ccc2cc3c(nc2c1)OCC3
 : 4 | -0.1

High-throughput results from PubChem BioAssay.

Some of the compounds tested, so the mix of outcomes need not match the whole.
